LASV entry inh: qHTS for Inhibitors of binding or entry into cells for Lassa Virus; Lassa virus pseudotype entry inhibition, cell reporter; control for the full effect not named in the record; Potency, µM (titrated, usually from 37.9 µM), for inactives: at the highest dose activity change, negative = inhibition, actives largely listed as inhibitors; 1.2% of 300,000 active; AID 540256, 2011; active means well fitted inhibition curve with a large enough effect; inconclusive means small, poorly fitted or top-dose-only effect, or effect the other way; inactive means flat fitted curve, though single readings scatter; tested in HEK293 cells; note: % is set by controls: 0 for no effect and ±100 for the full control effect; nearly all actives have a fitted effect of over 50% in size; luciferase read-out
RE007 growth inh: qHTS Assay for Inhibitors of the HIV-1 protein Vpr | S. pombe RE007 Vpr strain, BacTiter-Glo ATP luminescence, 24 h; control for the full effect not named in the record | 0.21% of 360,000 active | Potency, µM (doses to about 92.2 µM), without a hit: at the highest dose activity change, negative = less growth; active = well fitted falling curve with a large enough effect; inconclusive = small, poorly fitted or top-dose-only effect; inactive = no such curve, though single readings can be large or run the other way;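 note: % is set by controls: 0 for no effect and ±100 for the full control effect; nearly all actives have a fitted effect of over 50% in size; the assay follows cell death caused by Vpr and the record does not say whether a fall means rescue or toxicity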
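Fission yeast strain RE007, carrying one chromosomally integrated HIV-1 vpr copy, was seeded at OD 0.01 in PMG+AL medium with 23 nL pinned compound. After 24 h at 30 °C and 99% humidity, viability was read by BacTiter-Glo luminescence.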
NS1 function inh: qHTS Assay for Inhibitors of Influenza NS1 Protein Function; S. cerevisiae slowed by influenza A NS1, growth recovery by OD600; Potency, µM (titrated, usually from 46.1 µM), inactives show at the highest dose activity, positive = more growth; 0.4% of 270,000 active; AID 2326, 2010; active means well fitted rising curve with a large enough effect; inconclusive means small, poorly fitted or top-dose-only effect; inactive means no such curve, though single readings can be large or run the other way; note: nearly all actives have a fitted effect of over 50% in size
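In this qHTS, NS1 from influenza A is expressed in budding yeast, where it slows growth. Cells are switched from glucose to 2% galactose medium (pH 6.0, -URA), treated with compound, and growth recovery is read at OD600.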
MARV entry inh: qHTS for inhibitors of binding or entry into cells for Marburg Virus | AID 540276, 2011 | Marburg virus pseudotyped entry inhibition, cell reporter; control for the full effect not named in the record; about a third of the inactives were read at about 46 µM | 1.8% of 300,000 active | Potency, µM (top dose mostly 37.8 µM), for the others: at the top dose activity change, negative = inhibition, hits mostly inhibitors; active = well fitted inhibition curve with a large enough effect; inconclusive = small, poorly fitted or top-dose-only effect, or effect the other way; inactive = flat fitted curve, though single readings scatter; tested in HEK293 cells; about a fifth of its hits are not listed in these tables; note: % is set by controls: 0 for no effect and ±100 for the full control effect; luciferase read-out
Cruzain Triton: qHTS Assay for Promiscuous and Specific Inhibitors of Cruzain (with detergent) | Cruzipain (Trypanosoma cruzi), P25779 | purified cruzain, Z-FR-AMC fluorescence, 0.01% Triton | Potency, µM, for inactives: max response, negative = inhibition, actives largely listed as inhibitors | 0.43% of 200,000 active;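 note: plate controls were neutral wells for no effect and buffer without enzyme for full effect; nearly all actives have a fitted effect of over 40% in size; top concentration of the series not given in the record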
Target sequence (P25779 123-467 limits assumed): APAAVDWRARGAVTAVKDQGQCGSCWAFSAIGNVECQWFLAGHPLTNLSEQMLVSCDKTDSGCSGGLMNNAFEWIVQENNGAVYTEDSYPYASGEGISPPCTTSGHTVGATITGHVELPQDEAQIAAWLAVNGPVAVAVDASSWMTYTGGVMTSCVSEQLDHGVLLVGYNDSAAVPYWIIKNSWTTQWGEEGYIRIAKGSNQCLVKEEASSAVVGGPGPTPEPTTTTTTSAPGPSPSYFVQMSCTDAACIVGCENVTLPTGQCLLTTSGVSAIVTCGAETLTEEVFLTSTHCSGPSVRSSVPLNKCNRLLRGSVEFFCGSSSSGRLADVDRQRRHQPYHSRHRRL
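Sodium acetate buffer (100 mM, pH 5.5) containing 5 mM DTT and 0.01% Triton X-100 hosted 1.5 nM cruzain and test compound for 15 min at room temperature. Cleavage of 2 uM Z-FR-AMC was then tracked by fluorescence.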
StopGo reporter: High Throughput Screening for Foot and Mouth Disease Virus Antivirals | human cells with a luciferase reporter of 2A StopGo recoding; control for the full effect not named in the record | Potency, µM (top dose mostly 57.9 µM), without a hit: at the highest dose signal change, negative = less light | AID 1159524, 2015 | 1.2% of 410,000 active; active = well fitted falling curve with a large enough effect; inconclusive = small, poorly fitted or top-dose-only effect; inactive = no such curve, though single readings can be large or run the other way; tested in HEK293T cells; note: % is set by controls: 0 for no effect and ±100 for the full control effect; nearly all actives have a fitted effect of over 45% in size; luciferase light after 4 h
SARS PLpro yeast: qHTS of Yeast-based Assay for SARS-CoV PLP; Potency, µM (titrated, usually from 32.9 µM), for inactives: top-dose activity, positive = growth rescue; S. cerevisiae expressing SARS-CoV PLpro, growth rescue; control for the full effect not named in the record; 0.19% of 330,000 active; AID 485353, 2010; active means well fitted rising curve with a large enough effect; inconclusive means small, poorly fitted or top-dose-only effect; inactive means no such curve, though single readings can be large or run the other way; note: 0% is about no effect; nearly all actives have a fitted effect of over 55% in size; growth read by luminescence after 48 h
Cruzain noTriton: qHTS Assay for Promiscuous and Specific Inhibitors of Cruzain (without detergent); Cruzipain (Trypanosoma cruzi), P25779; purified cruzain, Z-FR-AMC fluorescence, no detergent; Potency, µM, without a hit: max response, negative = inhibition, most hits filed as inhibitors; 2.3% of 200,000 active; AID 1476, 2009;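 note: plate controls were enzyme without inhibitor for no effect and buffer without enzyme for full effect; nearly all actives have a fitted effect of over 40% in size; top concentration of the series not given in the record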
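Detergent-free condition (0.00005% Triton X-100) in acetate buffer pH 5.5 with DTT. 1.5 nM enzyme and compound were pre-mixed 15 min, then 2 uM Z-FR-AMC substrate added; reaction progress from fluorescence change between first and third reads (60 s).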
The depositor's hits bear a star; & = joins results of further samples; [ ] = remark or other dose. Unless noted, calls come from the whole dose curve; as a rule, active = well fitted curve in the direction sought with a large enough effect; inconclusive = small, poorly fitted or top-dose-only effect, or another doubt; inactive = no such curve, though single readings can be large; an effect the other way counts as inactive or inconclusive. Potency is the fitted concentration of half-maximal effect.

For CCOc1ccccc1C(=O)Oc1c(Sc2ccccc2)c(C)nn1C(C)(C)C the results were LASV entry inh 24%[46.1 µM], MARV entry inh 24%[46.1 µM], Cruzain Triton 0.3%, StopGo reporter -26% and Cruzain noTriton -12%.
Screening COc1cc(NC(=O)CCS(=O)(=O)c2ccc3c(c2)n(C)c(=O)c(=O)n3C)cc(OC)c1 returned LASV entry inh 11%[46.1 µM], RE007 growth inh -9%, NS1 function inh 20%, MARV entry inh -1%[46.1 µM], Cruzain Triton -0.9%, StopGo reporter -21%&4%, SARS PLpro yeast 6% and Cruzain noTriton 9%.
Cc1cccc(S(=O)(=O)N(CC(=O)Nc2ccccc2C)Cc2ccco2)c1 was read as LASV entry inh 27%, RE007 growth inh 0%, NS1 function inh 2%, MARV entry inh -3%, Cruzain Triton 0.6%, StopGo reporter -28%, SARS PLpro yeast -2% and Cruzain noTriton -10%.
CCC(C)NC(=O)c1ccc(CSCc2ccc(Cl)cc2)o1 (configuration not stated) was read as LASV entry inh -18%[46.1 µM], RE007 growth inh -13%, NS1 function inh -38%, MARV entry inh -17%[46.1 µM], StopGo reporter -29% and SARS PLpro yeast -6%.
Cc1c(CCC(=O)O)c(=O)oc2cc3occ(-c4ccccc4)c3cc12 was read as LASV entry inh inconclusive, RE007 growth inh -3%, NS1 function inh 2%, MARV entry inh inconclusive, StopGo reporter -10% and SARS PLpro yeast -2%.
`Cc1ccc[n+](CC(=O)Nc2ccc([N+](=O)[O-])cc2Cl)c1` gave LASV entry inh -5%, RE007 growth inh 13%, NS1 function inh 1%, MARV entry inh inconclusive, Cruzain Triton -0.6%, StopGo reporter 2%, SARS PLpro yeast -4% and Cruzain noTriton 2%.
`CC1CCCC(C)N1C(=O)CSc1nc2ncnc(N)c2[nH]1` (configuration not stated) gave LASV entry inh -9%, RE007 growth inh -2%, NS1 function inh -1%, MARV entry inh 5%, Cruzain Triton -0.1%, StopGo reporter -7%, SARS PLpro yeast 3% and Cruzain noTriton 8%.
CCOC(=O)C1(CC2CCCCO2)CCN(S(=O)(=O)c2cc(C)cs2)CC1 (configuration not stated) was read as LASV entry inh 1%, RE007 growth inh 8%, NS1 function inh -4%, MARV entry inh -53%[46.1 µM], StopGo reporter inconclusive and SARS PLpro yeast -1%.
For COc1ccc(CCNCc2ccccn2)cc1OC the results were LASV entry inh 12%, RE007 growth inh -4%, NS1 function inh 1%, MARV entry inh 1%, Cruzain Triton 2.7%, StopGo reporter -29%, SARS PLpro yeast 1% and Cruzain noTriton 3%.
For Nc1nc(-c2ccco2)nn1C(=O)c1ccc(Cl)cc1 the results were LASV entry inh 17%, RE007 growth inh -7%, NS1 function inh -21%, MARV entry inh -5%, Cruzain Triton 0.2%, StopGo reporter 0%, SARS PLpro yeast -4% and Cruzain noTriton -4%.
Screening Nc1nc(N)c2sc3nc(C(F)(F)F)cc(C(F)(F)F)c3c2n1 returned LASV entry inh 6%, RE007 growth inh 3%, NS1 function inh 3%, MARV entry inh -1%, Cruzain Triton -15%, StopGo reporter -17%, SARS PLpro yeast 1% and Cruzain noTriton 12%.
`CC(C)(C)NC(=O)CN(C(=O)c1snc(C(=O)NC2CCCCC2)c1N)c1ccc(F)cc1` gave LASV entry inh inconclusive, RE007 growth inh -11%, NS1 function inh 17%, MARV entry inh inconclusive, StopGo reporter -20% and SARS PLpro yeast 2%.
For CCN1CCN(Cc2cc(=O)oc3ccc(C)cc23)CC1 the results were LASV entry inh 26%[46.1 µM], RE007 growth inh -11%, NS1 function inh 2%, MARV entry inh 9%[46.1 µM], StopGo reporter -3% and SARS PLpro yeast 0%.
For CCOCCCN(C(=O)Cn1nnc(-c2ccc(C)o2)n1)C(C(=O)NCC1CCCO1)c1ccc(F)cc1 (configuration not stated) the results were LASV entry inh -27%, RE007 growth inh -3%, NS1 function inh -2%, MARV entry inh -24%[46.1 µM], StopGo reporter 2% and SARS PLpro yeast 0%.
`O=C(C(=O)N1CCCC1CO)N1CCCC1CO` (configuration not stated) gave LASV entry inh 3%, RE007 growth inh 12%, NS1 function inh 6%, MARV entry inh inconclusive, StopGo reporter -17% and SARS PLpro yeast 0%.
Screening O=C(CCCCl)Nc1nc(-c2ccc3c(c2)OCCO3)cs1 returned LASV entry inh inconclusive, RE007 growth inh 11%, NS1 function inh -9%, MARV entry inh 18%[46.1 µM], StopGo reporter 13% and SARS PLpro yeast 2%.
Screening Cc1cc(C)cc(CC(Cc2nc3ccccc3[nH]2)c2nc3ccccc3[nH]2)c1 (configuration not stated) returned LASV entry inh inconclusive, RE007 growth inh -5%, NS1 function inh -10%, MARV entry inh inconclusive, Cruzain Triton -1.5%, StopGo reporter inconclusive, SARS PLpro yeast 8% and Cruzain noTriton -13%.
For N#Cc1cnn2c(-c3cccc(C(F)(F)F)c3)ccnc12 the results were RE007 growth inh 8%, NS1 function inh -4%, StopGo reporter -8% and SARS PLpro yeast 1%.
Cc1cc2cc(CNC(=O)Cc3ccc([N+](=O)[O-])cc3)ccc2[nH]1 was read as LASV entry inh -15%, RE007 growth inh -14%, MARV entry inh -18%, StopGo reporter -4% and SARS PLpro yeast -1%.
Screening CCn1cc(CNC(=O)c2ccc(C)s2)cn1 returned LASV entry inh inconclusive, RE007 growth inh 12%, NS1 function inh 2%, MARV entry inh 7%[46.1 µM], StopGo reporter 4% and SARS PLpro yeast 1%.
`CCCCc1cc(=O)oc2cc(C)cc(OCC(=O)Nc3ccccn3)c12` gave RE007 growth inh -21%, NS1 function inh -11%, StopGo reporter -9% and SARS PLpro yeast -8%.
For CC(C)c1cccc(C(C)C)c1NC(=O)CN1CCCC1 the results were LASV entry inh -1%[46.1 µM], RE007 growth inh 5%, NS1 function inh -10%, MARV entry inh -5%[46.1 µM], StopGo reporter 0% and SARS PLpro yeast -2%.
Screening COc1ccccc1NS(=O)(=O)c1ccc(NN=C2CCCCC2)c([N+](=O)[O-])c1 returned LASV entry inh inconclusive, RE007 growth inh -15%, NS1 function inh inconclusive, MARV entry inh inconclusive, Cruzain Triton -3.6%, StopGo reporter -18%, SARS PLpro yeast 19% and Cruzain noTriton inconclusive.
Screening Cc1cc(NC(=O)c2ccccc2Cl)ccc1NC(=O)c1ccccc1Cl returned RE007 growth inh 11%, NS1 function inh -9%, StopGo reporter 34%[activator] and SARS PLpro yeast 1%.
CCOC(=O)c1c(NC(=O)c2cc3ccccc3c(=O)o2)sc2c1CCCC2 was read as LASV entry inh -3%[46.1 µM], MARV entry inh 0%[46.1 µM], Cruzain Triton 0.1%, StopGo reporter -11% and Cruzain noTriton 9%.
For Cc1nc(C)c(-c2csc(Nc3ccc(C(=O)O)c(O)c3)n2)s1 the results were RE007 growth inh 5%, NS1 function inh 12%, StopGo reporter 28% and SARS PLpro yeast 13%.
Screening CCOc1cc(C2C(C#N)=C(N)SC(N)=C2C#N)ccc1OCCN1CCOCC1 returned LASV entry inh 23%, RE007 growth inh -5%, NS1 function inh 6%, MARV entry inh -22%, Cruzain Triton inconclusive, SARS PLpro yeast 2% and Cruzain noTriton inconclusive.
COc1cc(CNCc2cccnc2)ccc1OCC(=O)NC(C)(C)C was read as RE007 growth inh -9%, NS1 function inh 3%, StopGo reporter -10% and SARS PLpro yeast 0%.
COc1cccc(OCC(O)CN2CCN(c3ccccc3)CC2)c1 (configuration not stated) was read as RE007 growth inh -7%&-5%, NS1 function inh -1%&-35%, StopGo reporter inconclusive and SARS PLpro yeast 0%&3%.
`NC(=O)c1ccsc1NC(=O)c1coc2ccccc2c1=O` gave LASV entry inh 5%, RE007 growth inh 17%, NS1 function inh 7%, MARV entry inh -21%, StopGo reporter 15% and SARS PLpro yeast -2%.
For CCCOc1cccc(C(=O)N(Cc2cc(OC)c(OC)c(OC)c2)C2CCS(=O)(=O)C2)c1 (configuration not stated) the results were LASV entry inh -1%[46.1 µM], MARV entry inh 1%[46.1 µM], Cruzain Triton -1.5%, StopGo reporter -2% and Cruzain noTriton -1%.
For CCOc1ccc(OCC)c(S(=O)(=O)NCc2ccc3c(c2)OCO3)c1 the results were RE007 growth inh -7%, NS1 function inh -24%, Cruzain Triton 4.5%, StopGo reporter 74%[activator], SARS PLpro yeast -14% and Cruzain noTriton 0%.
Screening Cc1ccc(Cl)cc1N1CCN(C(=O)c2cccc3c(=O)c(C)c(-c4ccccc4)oc23)CC1 returned LASV entry inh inconclusive, RE007 growth inh 5%, NS1 function inh inconclusive, MARV entry inh inconclusive, Cruzain Triton -1.4%, StopGo reporter inconclusive, SARS PLpro yeast -1% and Cruzain noTriton -11%.
Screening CN(C)S(=O)(=O)c1ccc(C(=O)Nc2ccc(S(=O)(=O)NC3=NCCCCC3)cc2)cc1 returned LASV entry inh -16%, RE007 growth inh -14%, NS1 function inh inconclusive, MARV entry inh -6%[46.1 µM], Cruzain Triton 2.8%, StopGo reporter -15%, SARS PLpro yeast 11% and Cruzain noTriton 18%.
For O=C(O)c1cccc(-n2cccc2/C=N/O)c1 the results were LASV entry inh inconclusive, RE007 growth inh 1%, NS1 function inh -4%, MARV entry inh 13%, Cruzain Triton -3.7%, StopGo reporter 17%, SARS PLpro yeast -2% and Cruzain noTriton 6%.
CC(=O)NS(=O)(=O)c1ccc(NC(=O)c2ccc3c(c2)NC(=O)CS3)cc1 was read as LASV entry inh -15%[46.1 µM], RE007 growth inh 8%, MARV entry inh -8%[46.1 µM], StopGo reporter -4% and SARS PLpro yeast -29%.
COc1ccccc1CCCNC(=O)C1CCC(=O)N(CCCN2CCCC2=O)C1 (configuration not stated) was read as LASV entry inh 24%[46.1 µM], RE007 growth inh 6%, NS1 function inh 5%, MARV entry inh 16%[46.1 µM], StopGo reporter 5% and SARS PLpro yeast 1%.
Screening COC(=O)Cc1csc(NCc2ccccc2)n1 returned LASV entry inh 17%, RE007 growth inh 33%, NS1 function inh 3%, MARV entry inh 13%[46.1 µM], StopGo reporter 11% and SARS PLpro yeast 8%.
COc1ccc(NC(=O)CCCC(=O)c2ccccc2)cc1OC was read as RE007 growth inh 15%, NS1 function inh -2%, StopGo reporter 3% and SARS PLpro yeast 0%.
